# Bioassay records deposited in PubChem BioAssay by ICCB-Longwood Screening Facility, Harvard Medical School.
# HCMV UL50-53 inh = inhibitors of HCMV UL50-UL53 interaction, biochemical, HTRF. HCMV UL50-UL53 nuclear egress complex (human cytomegalovirus). normalized percent inhibition. inhibition, % (test concentration not listed). 0.15% of 190,000 active. AID 1918969, 2023;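 active means both replicates at 50% or more, plus weaker picks with an unusually low signal ratio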;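 further: stock transfer was 100 nL into about 20 µL; 0% = negative control wells and 100% = wells with untagged competitor protein; inactives centre near -12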
# GIV-Gai inh = inhibitors of GIV peptide binding to Galpha-i3, primary screen, biochemical, fluorescence polarization, FITC-GIV GBA peptide, rat Galphai3 | Guanine nucleotide-binding protein G(i) subunit alpha-3 (Rattus norvegicus), P08753 | 90 min; active compounds read low; scaled: aluminum fluoride 0%, vehicle 100% | percent of control (FP), % (test concentration not listed) | 0.42% of 210,000 active | AID 1224905, 2016;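 active means replicate mean at 85% of control or lower, very high polarization wells dropped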;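 further: lower values mean more displacement of the GIV peptide from Galpha-i3; wells of about 15 µL received 100 nL stock; the first replicate is given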
# Target sequence (P08753 whole entry, looked up): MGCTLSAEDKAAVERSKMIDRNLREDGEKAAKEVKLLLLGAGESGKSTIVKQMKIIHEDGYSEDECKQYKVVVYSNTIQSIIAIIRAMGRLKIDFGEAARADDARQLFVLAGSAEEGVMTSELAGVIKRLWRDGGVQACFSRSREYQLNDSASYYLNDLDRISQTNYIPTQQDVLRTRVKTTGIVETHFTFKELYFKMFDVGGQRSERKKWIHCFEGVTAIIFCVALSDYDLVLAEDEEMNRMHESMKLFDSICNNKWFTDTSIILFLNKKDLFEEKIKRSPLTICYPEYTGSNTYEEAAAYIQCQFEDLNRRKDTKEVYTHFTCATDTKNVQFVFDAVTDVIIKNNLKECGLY
# Sa growth inh = S. aureus growth inhibition at 42 and 30 °C, primary screen, LtaS inhibitor project, RN4220, two temperatures | 0.53% of 170,000 active | AID 720641, 2013 | OD600, 20 h, 42 °C; active compounds read low | relative growth, % (no concentration beside the values);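 active means growth at 42 °C up to 50% and 20 or more points under that at 30 °C, or under 10% at both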;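 further: 300 nL library stock went into each well; scaled to the means of positive and negative controls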
# Sa growth inh second temp = recorded beside Sa growth inh, whose call it bears; relative growth, %; measured here: growth at 30 °C;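 optical density after 20 h as mean of two plates; 100% = untreated growth and lower means inhibition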
# * = called active by the depositor; . = no result given; & = joins results of further samples.
smiles,HCMV UL50-53 inh,GIV-Gai inh,Sa growth inh,Sa growth inh second temp
c1ccc2c(c1)COC(CNC1CCCCC1)OC2,1.0,.,97.4,79.8
CC(=O)NCCSc1nc(-c2cccs2)cc(-c2ccc(F)cc2)c1C#N,.,105.7,73.0,84.8
CCN(C(=O)Cc1ccc(Cl)cc1)c1ccccc1,10.6,103.3,110.1,104.1
CCOC(=O)c1c(CN(C)C)n(-c2ccccc2)c2cc(Br)c(O)cc12,-11.7,108.4,.,.
CCN(CC)CCCN,-22.8,99.3,98.8,92.5
O=C(CCn1nc(-c2ccc(Cl)cc2)ccc1=O)NCc1cccnc1,.,98.1,91.5,78.8
CCC(C)OC(=O)CSc1nc2ccccc2s1 (configuration not stated),2.3,104.3,.,.
COCCn1ccc2nc(C)c(C(=O)N3CCC(C)CC3)cc2c1=O,-33.8,101.8,.,.
CCC12CN3CCN(CC(C3)/C1=N\NC(=O)Nc1ccccc1)C2,-12.9,102.4,99.6,89.2
CCOC(=O)C(Nc1cccc(CO)c1)c1ccccc1 (configuration not stated),21.5,.,125.9,106.5
CCOC(=O)Nc1ccc2c(COC(=O)c3cccn3C)cc(=O)oc2c1,19.2,.,100.8,94.5
CC1=NN(C(=O)Cc2ccccc2)C(O)(c2ccc(Br)cc2)C1 (configuration not stated),-13.9,98.8,.,.
O=C(c1ccco1)N1N=C(c2ccccc2)CC1c1cc2cc3c(cc2nc1Cl)OCCO3 (configuration not stated),-14.0,98.6,89.7,88.6
CCCn1c2ccccc2c2cnn(CC(=O)NC3CCCC3)c(=O)c21,-28.1,105.9,90.9,94.2
COc1ccc(-c2cc(C(F)(F)F)nc(SCC(=O)N3CC4(C)CC3CC(C)(C)C4)n2)cc1 (configuration not stated),.,105.8,109.1,80.3
CCC(=O)c1cn(CC(=O)NCc2cccs2)c2ccccc12,3.4,106.3,98.6,82.1
CCN(CC)C(=O)COc1nc(Cc2ccccc2)nc2sc3c(c12)CCCC3,-23.6,99.5,.,.
CC(=O)Nc1ccc(S(=O)(=O)Nc2ccc(F)cc2)cc1,-7.4,96.2,98.0,77.8
O=C1/C(=C\NCc2ccccc2)S(=O)(=O)N(Cc2ccc(Cl)cc2)c2ccccc21,.,103.2,99.9,100.8
Cc1cc2c(cc1S(=O)(=O)N1CCc3ccccc31)OCC(=O)N2,.,103.8,85.4,77.8
CC(C)CC(NC(=O)C1CCC(C)CC1)C(=O)O (configuration not stated),-16.3,101.7,96.4,85.6
Cc1[nH]nc(-c2ccc(O)cc2O)c1Oc1ccc(F)cc1,-45.7,105.4,77.0,64.1
CNc1nc(-c2ccc3c(c2)CCN3C(=O)C(C)C)cs1,-18.5,105.5,71.0,75.0
CCn1c(=O)c(C(=O)Nc2cccc(Cl)c2)c(O)c2ccccc21,-15.9,107.5,.,.
CCC(C)NC(=O)Cn1c(=O)n(Cc2ccc(C(=O)NCc3ccccc3OC)cc2)c(=O)c2ccccc21 (configuration not stated),-21.0,103.0,116.7,80.0
CSc1n[nH]c(-c2ccccc2)n1,5.8,103.8,108.5,96.2
COc1ccccc1-c1nc(SCC(=O)NCc2ccccc2)c2c(=O)n(C)c(=O)n(C)c2n1,.,96.1,86.4,90.7
FC(F)(F)CNCc1ccco1,17.6,.,114.5,99.4
O=C1c2ccccc2NC(c2ccccn2)N1CCCN1CCOCC1 (configuration not stated),3.3,102.3,101.9,98.7
O=C(c1ccco1)N1CCN([C@H]2CS(=O)(=O)C[C@@H]2S(=O)(=O)c2cccs2)CC1,-1.3,98.5,.,.
Cc1cc(OC(C)C(=O)NCC2CCCO2)cc(C)c1Cl (configuration not stated),3.7,106.6,83.4,99.8
Oc1ccccc1-c1cc(-c2ccc3c(c2)OCCO3)n[nH]1,-7.7,.,69.6,44.0
Cc1nsc2c1ccc1sccc12,-19.2,104.0,93.4,86.9
CN(C)c1ccc(CNS(=O)(=O)c2ccc3[nH]c4c(c3c2)CCCCC4)cc1,.,105.7,94.6,80.3
Cc1noc(C)c1S(=O)(=O)NCc1cccs1,-2.6,104.7,103.0,107.2
CC(=O)N(Cc1ccccc1)Cc1cn(-c2ccccc2)nc1-c1cccs1,-2.3,106.5,112.3,96.7
Cc1cc([S-])c2n(cn[n+]2Cc2ccc(Cl)cc2Cl)n1,-34.0,.,95.5,73.9
O=C(OC1CCCCC1=O)c1ccc2c(c1)OCCO2 (configuration not stated),-9.3,.,119.8,87.8
O=C(COC(=O)c1n[nH]c2ccccc12)NCc1ccccc1,30.2,.,91.3,101.6
Cc1onc(-c2ccccc2Cl)c1C(=O)NC(=S)N1CCCc2ccccc21,-11.1,.,96.6,63.4
COC(=O)CN1C=C(C(=O)OC)C(c2ccc(F)cc2)C(C(=O)OC)=C1,-57.5,98.2,83.5,83.4
Cc1cc(C)cc(Nc2c(C(=O)N3CCCCC3)cnc3ccc(F)cc23)c1,-6.2,96.0,.,.
Cc1nc2cc3c(cc2n1C)OCCO3,14.7,106.0,.,.
CCCN1CCN(c2ncnc3sc(C(=O)NCCc4c[nH]c5ccc(Cl)cc45)c(C)c23)CC1,-40.2,102.7,.,.
Cc1cc(Nc2ccccc2C)nc(-n2nc(C)cc2C)n1,.,102.9&103.3,-0.2*,-0.3*
COc1cc(OC)c(NC(=O)Nc2noc3c2COc2ccccc2-3)cc1Cl,-23.1,96.3,93.5,82.2
O=C1C(Sc2ncn[nH]2)=C/C(=N/S(=O)(=O)c2ccc(Cl)cc2)c2ccccc21,-8.3,8.2*,1.2*,0.3*
CCN=C1NN=C(c2ccc(NC(=O)CC)cc2)CS1,-30.6,.,100.6,96.0
Cn1c2ccccc2c2[nH]c3ccccc3c21,-8.6,102.5,139.4,115.2
CCN(CC)S(=O)(=O)c1cccc2nsnc12,-109.0,93.1,99.6,101.0
O=C(CCCn1c(=O)c2cccn2c2ccc(F)cc21)NCc1ccccn1,-17.7,98.7,.,.
C[C@@H](O)[C@@H]1NC(=O)[C@H](CCCCN)NC(=O)[C@@H](Cc2c[nH]c3ccccc23)NC(=O)[C@H](Cc2ccccc2)NC(=O)[C@@H](NC(=O)[C@H](N)Cc2ccccc2)CSSC[C@@H](C(=O)N[C@H](CO)[C@@H](C)O)NC1=O,-11.0,100.7,93.7,87.0
CCc1nn(CC(=O)NCC2CCCO2)c(=O)c2cc3c(OC)cccc3n12 (configuration not stated),-4.3,100.9,99.6,100.0
O=C(NCCn1c(C(F)(F)F)nc2cccnc21)c1ccccc1Br,-20.9,102.1,.,.
O=C(Nc1ccc(F)cc1)Nc1csc2c1CCCC2,-20.3,96.8,97.3,77.2
CONc1nc(NC(C)(C)C)nc(OCC#N)n1,-6.0,97.0,89.6,105.2

# Remaining list, next part
smiles,HCMV UL50-53 inh,GIV-Gai inh,Sa growth inh,Sa growth inh second temp
Cc1ccc(/C=C/C(=O)Nc2ccccc2C(N)=O)o1,-49.7,105.3,91.8,91.5
Cc1cc(=O)n(CC(=O)Nc2ccc3c(c2)OCO3)c2c1c(C)nn2-c1cccc(F)c1,-27.9,100.9,114.6,88.0
Cc1cc(N2CCOCC2)ccc1/C=N/n1cnnc1,-51.5,.,91.8,84.8
COc1ccc(C(=O)CSc2nnc(C)s2)cc1OC,-15.8,102.4,82.4,96.9
CCOC(=O)c1c[nH]c2ccc(OC)cc2c1=O,-5.6,.,101.8,85.8
Cc1cccc(-c2noc(-c3cccnc3NCc3ccc(Cl)cc3)n2)c1,-36.5,101.4,93.1,85.9
Cc1ccc(C(=O)Nc2ccc(S(=O)(=O)Nc3onc(C)c3C)cc2)cc1,-24.1,99.6,87.5,89.5
CC1=C(c2ccc(C)cc2)S(=O)(=O)N(Cc2ccc(C(=O)Nc3ccccc3C)cc2)C1=O,.,105.0,97.9,89.5
Nc1nc(SCC(=O)NCCN2CCOCC2)nc2sc3c(c12)CCC3,-33.8,98.7,80.0,84.1
CCN(CC)C(=S)SCc1cn2cccc(C)c2n1,.,100.3,104.9,76.0
Cc1nc(-c2cccs2)cs1,-20.0,.,75.8,88.8
CCOc1ccc(CN2CCN(Cc3ccco3)CC2)cc1,-8.9,.,104.3,89.1
COC(=O)c1ccc(CSCC(=O)Nc2ccccc2)cc1,-11.2,102.5,111.7,93.1
O=C(CN(CCc1ccccc1)S(=O)(=O)c1ccc(Br)cc1)NCc1ccc(Cl)cc1,-13.9,110.7,100.2,105.7
COC(=O)c1ccc(C(=O)OC)c(N=CC2=C(O)CC(C)(C)CC2=O)c1,-50.0,108.1,89.8,79.2
Cc1c(C(=O)CN2C(=O)COc3ccc(Cl)cc32)c2ccccc2n1C,.,100.8,83.9,81.5
Cc1ccc(-c2cc3nccc(-c4cc(Cl)ccc4O)n3n2)cc1,-7.8,104.5,.,.
Cc1ccc2c(c1)N(CC(=O)N1CCCC1)C(=O)c1cccnc1O2,-35.2,100.9,80.7,81.4
COc1ccc(NC(=O)CC(c2ccc(F)cc2)c2ccco2)cc1 (configuration not stated),-15.3,110.0,97.9,82.5
O=C1CCC(=O)N1CCCn1c2ccccc2c2nc3ccccc3nc21,-60.5&-99.0,105.0&101.5,116.7,76.3
CCOC(=O)c1c[nH]c(=O)cc1O,-3.9,95.2,108.5,95.9
CS(=O)(=O)N(CC(=O)N1CCCC1)Cc1ccc(F)cc1,-31.0,108.1,100.8,76.3
O=C(/C=C/c1ccccc1)C1=C(O)C(=O)N(c2ccccc2)C1c1ccccc1 (configuration not stated),.,101.0,69.4,61.7
CCC(=O)Nc1sc2c(c1C(=O)Nc1ccc(Br)cc1)CCCCC2,25.3,108.3,100.8,95.2
Cc1ccc(Cn2c(=O)c3ccccc3n3c(=O)[nH]nc23)cc1,17.4,104.0,.,.
CC(C)(C)NCc1ccc(-c2ccc(F)cc2)o1,-11.1,102.3,.,.
Cc1cc(C)cc(NC(=O)c2sc(C)nc2C)c1,-7.5,108.3,.,.
CCOC(=O)Cn1cc(I)c(=O)[nH]c1=O,-38.5,100.5,84.9,83.2
CCOc1ccc(CCNC(=O)c2nc(N3CCOCC3)c3ccccc3n2)cc1OCC,-28.5,105.2,.,.
CCc1ccc(NC(=O)C2CCN(S(=O)(=O)c3c(C)noc3/C=C\c3ccc(OC)cc3)CC2)cc1,-27.9,103.6,88.3,87.9
Cc1ccc(Cc2ccc(NN)nn2)cc1,-27.1,104.5,.,.
Cc1cccc(NC(=O)c2ccc(CN3CC(=O)N4CCCCC4C3=O)cc2)c1C (configuration not stated),.,102.2,104.1,94.7
O=C(Cn1nc2c(Sc3ccccc3)nc3ccccc3n2c1=O)Nc1ccc(F)cc1,-7.4,108.1,.,.
NCCNC(=O)CCc1n[nH]c(=O)c2ccccc12,-29.7,102.1,89.5,81.8
Cc1[nH]c(C(=O)NCc2ccc(Cl)cc2)c(C)c1S(=O)(=O)N1CCCC1,-7.8,108.4,.,.
CCOC(=O)NC12CC3CC(CC(C3)C1)C2,-15.4,101.5,87.2,83.2
Cn1c(=O)oc2cc(S(=O)(=O)NC(Cc3ccccc3)C(=O)Nc3ccc(F)c(Cl)c3)ccc21 (configuration not stated),-27.2,96.9,104.3,79.7
Cc1c(Cl)cccc1NC(=O)Nc1cccc(Cn2cccn2)c1,-0.2,98.8,85.4,61.7
COc1ccc(CCNC(=O)Cn2c(=O)oc3ccccc32)cc1OC,-7.2,.,117.1,80.9
O=C(CCCCn1c(=O)c2ccccc2n(CC(=O)Nc2cccc(F)c2)c1=O)NCCc1ccccc1,1.2,105.4,107.3,96.3

# Whole records, looked up by structure. Screens in order: HCMV UL50-53 inh	GIV-Gai inh	Sa growth inh	Sa growth inh second temp
# CC(C)CC(NC(=O)C1CCC(C)CC1)C(=O)O (configuration not stated) is entered as -16.3	101.7	96.4	85.6
# O=C(COC(=O)c1n[nH]c2ccccc12)NCc1ccccc1 is entered as 30.2	.	91.3	101.6
# CCN=C1NN=C(c2ccc(NC(=O)CC)cc2)CS1 is entered as -30.6	.	100.6	96.0
# CCCN1CCN(c2ncnc3sc(C(=O)NCCc4c[nH]c5ccc(Cl)cc45)c(C)c23)CC1 is entered as -40.2	102.7	.	.

# (continued)
smiles,HCMV UL50-53 inh,GIV-Gai inh,Sa growth inh,Sa growth inh second temp
CCc1cccc(NC(=O)Nc2csc3c2CCCC3)c1,4.7,102.3,92.6,109.6
Cc1cc2nc3s/c(=C/c4ccc(N5CCN(C)CC5)c([N+](=O)[O-])c4)c(=O)n3c2cc1C,-19.6,101.1,.,.
COc1cc(C2NC(=O)NC(C)=C2C(=O)OCC(F)(F)F)ccc1OCc1ccccc1 (configuration not stated),-11.1,107.7,.,.
Cc1cccc(OCC(=O)NC(=S)Nc2ccc(-c3nc4ccccc4o3)cc2)c1,-2.4,131.3,122.5,85.2
